VCAM-1 rise – enhancers of VCAM-1 display on endothelial cells, cell-based, plate reader, pooled HUVEC, TNFa stimulus (AID 455); HUVEC TNFa-induced VCAM-1 immunofluorescence, plate reader; numbers were filed only for top-ranked candidate wells; augmentation, % at 5 µM; hit rate 0.2% among 10,000;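 active = a compound raising TNF-alpha-driven VCAM-1 surface staining, with its hit status upheld on visual or statistical review; inactive = the rest, including hits rejected on review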;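 note: 0% = TNFa with vehicle and 100% = strongest image-checked hit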
26S disassembly – blocks ATP-dependent breakdown of the yeast 26S proteasome | anti-FLAG beads, GFP-proteasome disassembly, flow cytometry | inhibition of disassembly, % (concentration not given with the values) | hit rate 0.2% among 24,000 | AID 751;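 active = above 40%; inconclusive = likely self-fluorescent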;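 note: plate controls were ATP control with full disassembly for no effect and ATP-gamma-S intact proteasomes for full effect; higher percent means more bead fluorescence retained so stronger block of disassembly; stock transfer was 100 nL into about 10 µL; wells with too few beads may also be inconclusive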
An asterisk follows results filed as active; i = inactive; ? = inconclusive; · = no result given. A portion of the library; rates above refer to the full screens.

| 26S disassembly | VCAM-1 rise | mol |
| --- | --- | --- |
| 0.5 | · | CCOC(=O)N1CCN(c2c(NCCCN(CC)c3cccc(C)c3)c(=O)c2=O)CC1 |
| -0.5 | i | O=C(O)c1ccccc1C(=O)Nc1ccccc1 |
| 1.0 | i | COC(=O)CC(C(=O)Nc1cc(C(=O)OC)cc(C(=O)OC)c1)N1CCN(C)CC1 (stereo unspecified) |
| -2.6 | · | COc1cc2c(C(=O)Nc3ccc4c(c3)OCO4)cn(CC(C)C)c(=O)c2cc1OC |
| 0.1 | · | Oc1ccc(CNC2CCCCC2)cc1 |
| 0.3 | i | Cc1ccc(C(=O)CC2(O)C(=O)N(C)c3ccc(Br)cc32)c(C)c1 (stereo unspecified) |
| 0.5 | · | CCCCC(CCC(=O)Nc1ccccc1C(=O)OCC)C(=O)O (stereo unspecified) |
| 2.0 | i | Fc1ccc(-c2csc3nnc(SCc4cccnc4)n23)cc1 |
| -0.1 | i | CNC(=O)CSc1nnc(-c2ccc(S(=O)(=O)N3CCCC3)cc2)n1-c1cccc(C)c1C |
| 1.1 | i | O=C(O)C1C2CCC(C2)C1C(=O)NCCCn1ccnc1 (stereo unspecified) |
| -0.2 | · | O=C(Nc1cccnc1)c1cc(-c2ccc3c(c2)OCO3)on1 |
| 1.2 | · | CCc1cccc(NC(=O)CS(=O)Cc2nc(-c3ccc(C)cc3)oc2C)c1 (stereo unspecified) |
| 4.1 | i | O=C(CSc1nnc(-c2ccccn2)n1Cc1ccccc1)N1CCCC1 |
| -0.6 | · | CCN1C(=O)c2cccc3c(S(=O)(=O)Nc4nc(C)cs4)ccc1c23 |
| -2.0 | i | Oc1cccc2ccc(Nc3ccccn3)nc12 |
| -1.5 | · | Cn1c(=O)c2c(O)cc(=O)[nH]c2n(-c2ccccc2)c1=O |
| 1.1 | i | CC(C)[N+](C)(CCOC(=O)C1c2ccccc2Oc2ccccc21)C(C)C |
| 0.0 | · | COc1ccc2cc3cc(C(=O)NCCN4CCN(c5ccccc5F)CC4)oc3nc2c1 |
| -2.0 | · | COc1ccc(N2CCN(C(CNC(=O)c3ccco3)c3cccnc3)CC2)cc1 (stereo unspecified) |
| -0.1 | · | COc1ccc(-n2c(Cc3cccn3C)nnc2SCC(=O)Nc2ccc(F)cc2F)cc1 |
| 0.2 | · | COc1cccc(N2CCN(C(=O)CN(c3ccc(C)cc3)S(=O)(=O)c3c(C)n[nH]c3C)CC2)c1 |
| 0.6 | i | COc1ccc(Cc2nnc3n2N=C(c2cc4ccccc4o2)CS3)cc1OC |
| -0.7 | · | CCN(CCCNC(=O)CCCn1c(=O)[nH]c2ccccc2c1=O)c1cccc(C)c1 |
| -0.5 | i | CC(=O)N1C(=O)C2(Nc3ccccc3N2)c2ccccc21 |
| -1.4 | i | CCOC(=O)C1=C(CC)Nc2ccccc2N=C1NC(=O)Cn1cnc2ccccc2c1=O |
| -2.0 | i | C=CCOC(=O)COc1ccc2c(C)c(C)c(=O)oc2c1C |
| 0.4 | · | O=C(C1CCCCN1S(=O)(=O)c1ccc(F)cc1)N1CCN(c2ccccc2F)CC1 (stereo unspecified) |
| -3.7 | · | O=C(Nc1cccc(-c2cn3cccnc3n2)c1)c1ccc2c(c1)OCO2 |
| -1.7 | · | Cc1ccc2nc(NC(=O)CNS(=O)(=O)c3ccc(Br)s3)sc2c1 |
| -1.4 | i | CC1Cc2ccccc2N1C(=O)c1cccnc1 (stereo unspecified) |

Full records, quoted from the list. Order of screens: 26S disassembly	VCAM-1 rise
COc1ccc(Cc2nnc3n2N=C(c2cc4ccccc4o2)CS3)cc1OC as listed: 0.6	i
O=C(C1CCCCN1S(=O)(=O)c1ccc(F)cc1)N1CCN(c2ccccc2F)CC1 (stereo unspecified) as listed: 0.4	·
CC(=O)N1C(=O)C2(Nc3ccccc3N2)c2ccccc21 as listed: -0.5	i
COc1ccc(-n2c(Cc3cccn3C)nnc2SCC(=O)Nc2ccc(F)cc2F)cc1 as listed: -0.1	·
Cc1ccc2nc(NC(=O)CNS(=O)(=O)c3ccc(Br)s3)sc2c1 as listed: -1.7	·

(cont.)
| 26S disassembly | VCAM-1 rise | mol |
| --- | --- | --- |
| 2.3 | · | O=C(CCC1N=C2c3ccccc3N=C(SCc3cccc(Cl)c3)N2C1=O)NCc1ccco1 (stereo unspecified) |
| 0.3 | · | O=C1C(c2ccc(F)cc2)N(Cc2ccc3c(c2)OCO3)C(=O)CN1C1CCCCC1 (stereo unspecified) |
| 0.6 | · | O=C(Cn1cnc2c(oc3ccccc32)c1=O)N1CCCc2ccccc21 |
| -0.7 | · | COc1ccc2cc3cc(C(=O)Nc4ccc5c(c4)OCO5)oc3nc2c1 |
| 1.2 | · | COc1cccc(-c2cc(C(=O)N3CC4(C)CC3CC(C)(C)C4)no2)c1 (stereo unspecified) |
| -0.4 | · | CCC(C)N1C(=O)CCC1C(=O)NCc1ccc2c(c1)OCO2 (stereo unspecified) |
| ? | · | COc1ccc2[nH]c(C)c(CN3CCCC(C)C3)c(=O)c2c1 (stereo unspecified) |
| -1.0 | · | NC(=O)c1nn(-c2ccccc2)nc1NC(=O)CN1CCCCC1 |
| 0.3 | i | CC1CN(CC(O)COc2ccccc2C(C)(C)C)CC(C)O1 (stereo unspecified) |
| 0.4 | · | CCOc1ccc(C(=O)NCCn2cc(SCC(=O)Nc3cc(C)on3)c3ccccc32)cc1 |
| 17 | i | COc1ccc(-c2nnc(SCC(=O)c3cc(C)n(Cc4cccs4)c3C)o2)cc1 |
| -1.0 | · | O=c1cc(CO)oc(CN2CCCC2)c1O |
| -0.8 | · | Cc1cc(Nc2ccc(F)cc2C)n2ncnc2n1 |
| -0.2 | · | CCOc1ccc(CC(=O)C2C(=O)CCCC2=O)cc1OCC |
| 0.0 | · | CCN(CC)c1ccc(NC(=O)CC2Oc3ccccc3NC2=O)c(C)c1 (stereo unspecified) |
| 0.0 | i | CCCCC(=O)O[C@]1(C(=O)CO)CC[C@H]2[C@@H]3CCC4=CC(=O)CC[C@]4(C)[C@H]3[C@@H](O)C[C@@]21C |
| 0.8 | i | Cc1[nH]c(=O)[nH]c(=O)c1S(=O)(=O)N(C)Cc1ccccc1 |
| 1.8 | i | CC(=O)Nc1cccc(NC(=O)CSc2nn3c(=O)c(C)nnc3s2)c1 |
| -4.6 | · | Cc1cc(Nc2ccc(Br)cc2F)n2ncnc2n1 |
| -1.4 | · | CCOC(=O)N1CCN(C(=O)C2CC(=O)N(c3ccc(OC)cc3)C2c2ccc(OC)cc2)CC1 (stereo unspecified) |
| 0.5 | · | COCCn1cc(C(=O)NCc2cccs2)c2c3ccccc3n(C)c2c1=O |
| -0.4 | · | CCOC(=O)C1CCCN(C(=O)CN2CCN(Cc3ccc(Cl)cc3)C2=O)C1 (stereo unspecified) |
| -1.8 | · | O=C(C1CCC(Cn2c(=O)[nH]c3ccccc3c2=O)CC1)N1CCN(c2ccccc2)CC1 (stereo unspecified) |
| 3.6 | i | N#Cc1c(N2CCCC2)nc(N)c2c(N)nc(N3CCCC3)cc12 |
| -0.1 | i | CCc1nnc(NC(=O)c2cccc(C(=O)Nc3nnc(CC)s3)n2)s1 |
| -1.7 | · | O=C(Nc1ccc(Cl)c(C(F)(F)F)c1)C1CCCN(S(=O)(=O)c2cnc[nH]2)C1 (stereo unspecified) |
| 0.6 | i | Cc1ccc(CC23CN4CCN(CC(C4)C2O)C3)c(C)c1 (stereo unspecified) |
| -0.8 | · | CCNC(=O)c1cc2c(=O)n3cccc(C)c3nc2n1C |
| -0.2 | · | Cc1noc(C)c1S(=O)(=O)N(CC(=O)NCc1ccc(Cl)cc1)c1ccc2c(c1)OCO2 |
| 0.8 | i | Clc1ccc(Cn2c(CN3CCCC3)nc3ccccc32)cc1 |

An excerpt from above in order of the 26S disassembly value, ascending.
| 26S disassembly | VCAM-1 rise | mol |
| --- | --- | --- |
| -0.8 | · | CCNC(=O)c1cc2c(=O)n3cccc(C)c3nc2n1C |
| -0.5 | i | CC(=O)N1C(=O)C2(Nc3ccccc3N2)c2ccccc21 |
| 0.6 | · | O=C(Cn1cnc2c(oc3ccccc32)c1=O)N1CCCc2ccccc21 |

Later entries
| 26S disassembly | VCAM-1 rise | mol |
| --- | --- | --- |
| -1.0 | i | CCn1c(SCC(=O)Nc2ccc3c(c2)OCO3)nc2c(c1=O)SC(C)C2 (stereo unspecified) |
| -0.8 | · | COc1ccc(Cl)cc1N1C(=O)C2CCCN2C1c1sccc1C (stereo unspecified) |
| -0.8 | i | CCc1c(C)n([O-])c2c([n+]1=O)CCC2 |
| -1.3 | i | COc1ccc(C(O)C(CN2CCOCC2)c2ccccc2)cc1F (stereo unspecified) |
| -1.6 | i | COCCNC(=O)C(C)OC(=O)c1nsc(Cl)c1Cl (stereo unspecified) |
| -2.1 | i | Cn1c(=O)c(=O)n(C)c2cc(S(=O)(=O)Nc3ccc4c(c3)OCCO4)ccc21 |
| -0.3 | i | COC(=O)c1sccc1NC(=O)c1ccco1 |
| -0.2 | · | Cc1nn(C)c(C)c1S(=O)(=O)N(CC(=O)Nc1ccc2c(c1)OCO2)c1ccc(C(C)C)cc1 |
| 28 | i | O=C(CN1C(=O)COc2ccccc21)N(Cc1cccnc1)Cc1ccccc1F |
| 2.4 | i | COc1cc(C2=NOC(C(=O)NCc3ccc(F)cc3)C2)cc(OC)c1OC (stereo unspecified) |
| -1.1 | · | CC(C)NC(=O)c1ccc(CS(=O)(=O)c2ccc(Br)cc2)o1 |
| 1.5 | · | CCOc1ccc(NC(=O)c2cccnc2C(=O)O)cc1 |
| -2.5 | · | CC(=O)n1nc2nc(C)cc(C)c2c1N |
| -1.6 | i | CC(C)c1ccc(NC(=O)C2CC(=O)N(C(C)C)C2)cc1 (stereo unspecified) |
| 1.1 | · | O=C(Cn1cc2c(n1)CCCC2)NCc1cccs1 |
| -1.5 | i | COc1cc(N=c2ssnc2Cl)cc(OC)c1 |
| 11 | · | COc1ccccc1CNC(=O)c1nnc(Cc2ccc(Cl)cc2)o1 |
| -1.9 | i | COc1cc(CNc2ccc(N3CCOCC3)c(C(=O)O)c2)ccc1OCC(N)=O |
| -0.9 | i | CCOC(=O)C1CCN(C(=O)CSc2n[nH]c(=O)[nH]c2=O)CC1 |
| -1.1 | · | COc1ccc(S(=O)(=O)NCCC(=O)NC(C)c2ccccc2)cc1 (stereo unspecified) |
| -3.0 | i | CCCC(=O)Nc1ccc(OCC(=O)OC)cc1 |
| -0.8 | · | O=c1c2cnn(-c3ccc(F)cc3)c2ncn1Cc1cccnc1 |
| 4.2 | i | O=C(NC1CCc2ccccc21)C1CCN(S(=O)(=O)c2ccc(-n3cnnn3)cc2)CC1 (stereo unspecified) |
| -0.2 | · | Cc1ccc(CNC(=O)C2CCC(=O)N2C2CCCCC2)cc1 (stereo unspecified) |
| 0.2 | i | CN(C)c1ccc(C(=O)OCC(=O)NC2CCCCC2)cc1 |
| 2.8 | · | O=C(CCNS(=O)(=O)c1cccc2nsnc12)NC1CCCc2ccccc21 (stereo unspecified) |
| -0.5 | · | O=C(c1ccc(CS(=O)(=O)c2ccc(Br)cc2)o1)N1CCCC1 |
| 0.3 | · | COC(=O)c1cc(-c2ccc(Br)cc2)n[nH]1 |
| 1.5 | i | Cc1ccc2c(c1)C(O)(CC(=O)c1ccc3c(c1)OCO3)C(=O)N2 (stereo unspecified) |
| -1.2 | · | CCCS(=O)(=O)N1CCC(C(=O)NC2CCCCC2C)CC1 (stereo unspecified) |
| 1.9 | · | O=C1c2cccnc2C(=O)N1C1CCCCC1 |
| 0.1 | · | Cc1ccc(-c2nc3ncccn3c2Nc2ccc3c(c2)OCCO3)o1 |
| -0.1 | i | CC1=C(C(=O)OC(C)C)C(c2ccccn2)n2ncnc2N1 (stereo unspecified) |
| -1.8 | i | O=C(CCN1CCc2ccccc2C1)Nc1ccc2c(c1)OCO2 |
| 0.3 | · | CCOC(=O)Nc1ccc(C)cc1Br |
| 0.1 | · | COc1cc2[nH]c(=O)n(CCC(=O)N3CCN(c4cc(Cl)ccc4C)CC3)c(=O)c2cc1OC |
| -0.6 | i | CCOC(=O)Cc1csc(NC(=O)CSc2nnc(C(C)C)n2CC)n1 |
| 3.5 | i | Cc1cc(C)c2c(=O)n(CC(=O)NCCCN3CCOCC3)sc2n1 |
| -0.6 | · | Cc1ccccc1S(=O)(=O)Cc1ccc(C(=O)N2CCN(C3CCCCC3)CC2)o1 |
| 1.9 | · | COCc1cc(C)nc2sc3c(=O)n(Cc4ccco4)nnc3c12 |
| -0.3 | i | CCn1cc(C(=O)NCCN(C)CCc2ccccc2)c(=O)c2cc(S(=O)(=O)N(C)C)ccc21 |
| 1.1 | · | COc1ccc(NC(=O)Nc2nnc(N3CCCCC3C)s2)cc1OC (stereo unspecified) |
| -0.4 | · | O=C(NCc1cccnc1)c1ccc(CS(=O)(=O)c2ccc(Br)cc2)o1 |
| -0.3 | · | Cn1c(=O)cc(OCCCC(=O)NC2CCCC2)c2ccccc21 |
| 2.1 | i | O=C(CCC(=O)N1CCN(S(=O)(=O)c2ccccc2)CC1)c1cccs1 |
| -2.8 | · | O=C(NC1CCCCC1)c1cccnc1C(=O)O |
| 2.2 | · | COc1ccccc1N1CCN(C(=O)CCCn2c(=O)[nH]c3ccsc3c2=O)CC1 |
| 1.4 | i | N#Cc1cc2c(nc1SCC(=O)N1CCCCC1)CCCC2 |
| 0.8 | · | CCOC(=O)C1=C(C)Nc2nc(SC)nn2C1c1ccc(C(=O)OC)cc1 (stereo unspecified) |
| -1.1 | · | Cc1nc2nc[nH]n2c(=O)c1NC(=O)CC12CC3CC(CC(C3)C1)C2 |
| 1.3 | · | O=C(NC(c1ccccc1)c1ccccc1)C1CCCN(S(=O)(=O)c2cnc[nH]2)C1 (stereo unspecified) |

High-throughput results (PubChem BioAssay)
